Screening results from PubChem.
SARS PLpro yeast – qHTS of Yeast-based Assay for SARS-CoV PLP | S. cerevisiae expressing SARS-CoV PLpro, growth rescue; control for the full effect not named in the record | Potency, µM (doses to about 32.9 µM), inactives show at the highest dose activity, positive = growth rescue | 0.19% of 330,000 active | AID 485353, 2010; further: 0% is about no effect; nearly all actives have a fitted effect of over 55% in size; growth read by luminescence after 48 h
2A StopGo – High Throughput Screening for Foot and Mouth Disease Virus Antivirals. human cells with a luciferase reporter of 2A StopGo recoding; control for the full effect not named in the record. Potency, µM (highest dose often 57.9 µM), for inactives: at the top dose signal change, negative = less light. 1.2% of 410,000 active. AID 1159524, 2015; active = well fitted falling curve with a large enough effect; inconclusive = small, poorly fitted or top-dose-only effect; inactive = no such curve, though single readings can be large or run the other way; tested in HEK293T cells; further: on the % scale 0 is the no-effect control and ±100 the full control effect; nearly all actives have a fitted effect of over 45% in size; luciferase light after 4 h
Lassa entry inh – qHTS for Inhibitors of binding or entry into cells for Lassa Virus. Potency, µM (titrated, usually from 37.9 µM), inactives show at the top dose activity change, negative = inhibition, usual class: inhibitors. AID 540256, 2011. 1.2% of 300,000 active. Lassa virus pseudotype entry inhibition, cell reporter; control for the full effect not named in the record; active means well fitted inhibition curve with a large enough effect; inconclusive means small, poorly fitted or top-dose-only effect, or effect the other way; inactive means flat fitted curve, though single readings scatter; tested in HEK293 cells; further: on the % scale 0 is the no-effect control and ±100 the full control effect; nearly all actives have a fitted effect of over 50% in size; luciferase read-out
Cruzain Triton – qHTS Assay for Promiscuous and Specific Inhibitors of Cruzain (with detergent) | AID 1478, 2009 | 0.43% of 200,000 active | purified cruzain, Z-FR-AMC fluorescence, 0.01% Triton | Cruzipain (Trypanosoma cruzi), P25779 | Potency, µM, inactives show max response, negative = inhibition, most hits filed as inhibitors; active means well fitted curve in the direction sought with a large enough effect; inconclusive means small, poorly fitted or top-dose-only effect, or another doubt; inactive means no such curve, though single readings can be large; an effect the other way counts as inactive or inconclusive;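 further: plate controls were neutral wells for no effect and buffer without enzyme for full effect; nearly all actives have a fitted effect of over 40% in size; top concentration of the series not given in the record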
Target sequence (P25779 123-467 limits assumed): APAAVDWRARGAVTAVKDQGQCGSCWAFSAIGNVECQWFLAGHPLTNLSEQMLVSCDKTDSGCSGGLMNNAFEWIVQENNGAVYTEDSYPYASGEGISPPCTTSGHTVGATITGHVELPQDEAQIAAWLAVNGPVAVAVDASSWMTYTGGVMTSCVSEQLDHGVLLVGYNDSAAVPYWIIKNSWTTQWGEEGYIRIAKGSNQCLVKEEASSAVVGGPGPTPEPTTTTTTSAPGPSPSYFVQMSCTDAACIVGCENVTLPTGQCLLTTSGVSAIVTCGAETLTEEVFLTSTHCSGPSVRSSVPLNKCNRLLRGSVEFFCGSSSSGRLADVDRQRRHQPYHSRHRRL
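Cysteine protease activity tested under reducing, mildly acidic conditions (100 mM sodium acetate pH 5.5, 5 mM DTT) plus 0.01% Triton X-100. Cruzain 1.5 nM; substrate Z-FR-AMC 2 uM; 15 min compound preincubation at room temperature.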
RE007 growth inh – qHTS Assay for Inhibitors of the HIV-1 protein Vpr; S. pombe RE007 Vpr strain, BacTiter-Glo ATP luminescence, 24 h; control for the full effect not named in the record; Potency, µM (titrated, usually from 92.2 µM), without a hit: at the highest dose activity change, negative = less growth; 0.21% of 360,000 active; active = well fitted falling curve with a large enough effect; inconclusive = small, poorly fitted or top-dose-only effect; inactive = no such curve, though single readings can be large or run the other way;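 further: on the % scale 0 is the no-effect control and ±100 the full control effect; nearly all actives have a fitted effect of over 50% in size; the assay follows cell death caused by Vpr and the record does not say whether a fall means rescue or toxicity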
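Fission yeast RE007 carrying one integrated HIV-1 vpr copy, seeded at OD 0.01 in PMG+AL medium with 23 nL pinned compound. Grown 24 h at 30 degrees; viability read by BacTiter-Glo luminescence after 5 min.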
Marburg entry inh – qHTS for inhibitors of binding or entry into cells for Marburg Virus. Marburg virus pseudotyped entry inhibition, cell reporter; control for the full effect not named in the record; about a third of the inactives were read at about 46 µM. Potency, µM (titrated, usually from 37.8 µM), for the others: at the highest dose activity change, negative = inhibition, usual class: inhibitors. 1.8% of 300,000 active. AID 540276, 2011; active = well fitted inhibition curve with a large enough effect; inconclusive = small, poorly fitted or top-dose-only effect, or effect the other way; inactive = flat fitted curve, though single readings scatter; tested in HEK293 cells; about a fifth of its hits are not listed in these tables; further: on the % scale 0 is the no-effect control and ±100 the full control effect; luciferase read-out
NS1 function inh – qHTS Assay for Inhibitors of Influenza NS1 Protein Function. 0.4% of 270,000 active. S. cerevisiae slowed by influenza A NS1, growth recovery by OD600. Potency, µM (series often up to 46.1 µM), inactives show at the highest dose activity, positive = more growth; further: actives are rising curves; nearly all actives have a fitted effect of over 50% in size
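Compounds were scored for reversing the slow growth caused by influenza A NS1 in S. cerevisiae, measured by optical density at 600 nm. Assay medium contained 2% galactose at pH 6.0; NS1-free yeast of the same strain were the positive control.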
Cruzain noTriton – qHTS Assay for Promiscuous and Specific Inhibitors of Cruzain (without detergent). purified cruzain, Z-FR-AMC fluorescence, no detergent. Potency, µM, inactives show max response, negative = inhibition, hits mostly inhibitors. 2.3% of 200,000 active; active means well fitted curve in the direction sought with a large enough effect; inconclusive means small, poorly fitted or top-dose-only effect, or another doubt; inactive means no such curve, though single readings can be large; an effect the other way counts as inactive or inconclusive;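 further: plate controls were enzyme without inhibitor for no effect and buffer without enzyme for full effect; nearly all actives have a fitted effect of over 40% in size; top concentration of the series not given in the record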
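Purified cruzain at 1.5 nM, pre-incubated 15 min with compound at room temperature in 100 mM sodium acetate pH 5.5, 5 mM DTT, 0.00005% Triton X-100. Reaction started with 2 uM Z-FR-AMC; AMC fluorescence increase over 60 s gives rate.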
* hit, by the source's call; u = inconclusive; x = no result given; & = joins results of further samples; [ ] = another dose, or the depositor's remark. Unless noted, the call rests on the fitted dose curve; in most records, active means well fitted rising curve with a large enough effect; inconclusive means small, poorly fitted or top-dose-only effect; inactive means no such curve, though single readings can be large or run the other way. Potency means the concentration at half of the fitted maximal effect. Random draw from the library, and some 4.7% of all compounds hit somewhere here.

SMILES	SARS PLpro yeast	2A StopGo	Lassa entry inh	Cruzain Triton	RE007 growth inh	Marburg entry inh	NS1 function inh	Cruzain noTriton
Cc1ccc(S(=O)(=O)N2CCCCC2)cc1NC(=O)CSc1nnc(C2CC2)n1N	1%	-4%	-6%	x	-4%	21%	x	x
NS(=O)(=O)c1cccc(NC(=O)c2ccccc2NS(=O)(=O)c2ccc(F)cc2)c1	-1%	0%	x	x	-19%	-7%[46.1 µM]	12%	x
Cc1cncn1CCc1nc2c3ccccc3nc(SCC(=O)Nc3ccccc3F)n2n1	x	-9%	9%[46.1 µM]	-0.2%	x	x	x	-2%
COc1cccc(N(CC(=O)NC2CCCC2)C(=O)CCC(=O)Nc2cc(C)on2)c1	-3%	0%	-12%	x	-6%	-16%[46.1 µM]	5%	x
O=C(c1cc(-c2ccc(Cl)c(Cl)c2)on1)N1CCCCC1	0%	24%	1%	-3.3%	0%	u	0%	-5%
Cc1ccc(NC(=O)C[n+]2ccccc2)cc1C	17%	7%	x	x	13%	x	19%	x
O=C(Nc1cccc(Cl)c1)Nc1c[nH]c(=O)[nH]c1=O	-1%	3%	0%	x	-4%	30%[46.1 µM]	0%	x
COCC(C)NC(=O)COCc1cc(-c2ccc3c(c2)OCO3)on1 (stereo unspecified)	2%	-3%	x	x	-7%	x	-4%	x
CC(C)Oc1nc(-c2ccc(Cl)cc2)nc2ccccc12	1%	-16%	x	x	-1%	x	-7%	x
Cc1ccccc1Cn1cc(NS(=O)(=O)c2cn(C)nc2C)cn1	-4%	-15%	x	x	15%	x	2%	x
O=C(O)CCCNc1cc(N2CCN(C(=O)c3ccco3)CC2)c2noc3c2c1C(=O)c1ccccc1-3	-14%	8%	-16%[46.1 µM]	x	-6%	4%[46.1 µM]	22%	x
Cc1ccccc1C(=O)Nc1sc2c(c1C(=O)N1CCC(C)CC1)CCC(C)C2 (stereo unspecified)	x	43%[activator]	21%[46.1 µM]	-2.7%	x	-20%[46.1 µM]	x	16%
O=C(c1[nH]ncc1-c1ccc(Cl)cc1)C1CO1 (stereo unspecified)	1%	0%	u	x	-10%	u	5%	x
CN1/C(=C\C=N\O)C(C)(C)c2ccccc21	-5%	-6%	u	x	1%	-2%[46.1 µM]	x	x
N#Cc1nc(/C=C/c2ccc(F)cc2)oc1N1CCN(c2ccccc2)CC1	x	-9%	20%[46.1 µM]	-0.9%	x	-21%[46.1 µM]	x	-1%
COC(=O)n1c(SC)nc2ccccc21	-5%	-7%	-6%	-1.3%	12%	u	-5%	-12%
O=C(CSc1n[nH]c(-c2ccccc2)n1)c1ccccc1	-21%	28%	x	-3.0%	2%	x	-18%	-18%
COc1ccccc1C(=O)N1CCN(C(=O)Cc2ccccc2)CC1	-3%	-2%	-2%[46.1 µM]	x	-8%	u	13%	x
CN1CCN(CCCNC(=O)C2CC(=O)N(C3CCCCC3)C2)CC1 (stereo unspecified)	0%	1%	u	3.3%	7%	5%	-4%	1%
Cc1nnc(SCc2cccc(Cl)c2)n(N)c1=O	-3%	-11%	-7%	x	3%	4%[46.1 µM]	x	x
Cc1cccc(Nc2nnc(-c3ccc(C)c(S(=O)(=O)N4CCOCC4)c3)c3ccccc23)c1	x	-17%	u	-6.0%	x	x	x	-3%
CC(C)[C@@H]1NC(=O)c2cc([N+](=O)[O-])cc(F)c2NCCC[C@@H](C(N)=O)NC(=O)[C@H](CO)NC1=O	0%	x	u	-11%	x	u	-22%	7%
Cc1ccc(NC(=O)c2cnccn2)cc1S(=O)(=O)N1CCCCCC1	-16%	u	u	x	-3%	u	x	x
CCOc1ccc2nc(N3CCCC(C(=O)NCCCOC)C3)sc2c1 (stereo unspecified)	x	-2%	x	-2.0%	x	u	x	u
O=C(O)c1ncc(Cl)c(Cl)c1Cl	-2%&0%	6%&-7%	-6%[46.1 µM]	x	-11%&8%	6%&6%[46.1 µM]	3%&-1%	x
Cc1ccsc1C(=O)C1CCCN(Cc2ccn[nH]2)C1 (stereo unspecified)	-1%	-7%	x	x	6%	x	12%	x
Cc1cccc(S(=O)(=O)NC(Cc2c[nH]c3ccccc23)C(=O)O)c1 (stereo unspecified)	-2%	-21%	3%	-3.7%	-9%	9%	0%	1%
Cc1ccc([N+](=O)[O-])cc1NC(=O)CCCOc1ccccc1	-2%	0%	11%	4.8%	7%	8%	3%	4%
O=S(=O)(c1ccc(F)cc1)N1CCC(Oc2cccc(C(F)(F)F)c2)CC1	x	u	-2%[46.1 µM]	-11%	x	-3%[46.1 µM]	x	3%
O=C(NCCc1ccccc1)c1cc(-c2ccc(Br)cc2)on1	x	3%	19%[46.1 µM]	1.1%	x	4%[46.1 µM]	x	1%
CSc1cccc(NC(=O)N2CCN(S(=O)(=O)c3ccc4c(ccn4C)c3)CC2)c1	x	-6%	-2%[46.1 µM]	-3.4%	x	x	x	u
COC(=O)c1cc2c(ccn2-c2ccc(F)cc2)n1Cc1cccc(OC)c1	6%	-9%	-28%	-5.8%	5%	13%	12%	-19%
CCOc1ccc(NS(=O)(=O)c2ccc3[nH]cc(C(=O)NCc4ccccc4)c(=O)c3c2)cc1	x	-11%	-16%[46.1 µM]	-8.4%	x	4%[46.1 µM]	x	-3%
COc1ccccc1CNC(=O)CSc1ccc(C(=O)Nc2ccccc2OC)cc1[N+](=O)[O-]	0%	-14%	-14%	-1.7%	0%	-4%	6%	u
O=S(=O)(Nc1ccc(S(=O)(=O)Nc2cccc3ccccc23)cc1)c1ccccc1	9%	-5%	0%	-6.8%	-10%	-21%	14%	u
CSc1ccc(C(=O)C2CCCN(Cc3ccc(N4CCNC4=O)cc3)C2)cc1 (stereo unspecified)	1%	-1%	-20%[46.1 µM]	x	-11%	u	-2%	x
CC(C)OC(=O)/C(=C/c1ccc2c(c1)c1ccccc1n2C)NC(=O)c1ccccc1	6%	18%	u	-5.7%	-4%	u	21%	-22%
COc1ccccc1C(CNC(=O)C(C)(C)Oc1ccc(Cl)cc1)N1CCCC1 (stereo unspecified)	5%	-29%	u	x	-5%	u	x	x
CCC(C)C1N=C(c2ccccc2)c2cc(Cl)ccc2N(CC(=O)NCc2ccco2)C1=O (stereo unspecified)	10%	u	x	3.6%	-4%	-8%	4%	6%
O=c1[nH]c(CSc2nnc(-c3ccncc3)n2Cc2ccco2)nc2ccccc12	1%	-24%	-1%	1.0%	-5%	-13%	1%	-2%
Cc1oc(C)c(C(=O)O)c1COc1ccc(C(=O)O)cc1	x	-11%	18%	-4.8%	-9%	-11%	6%	-8%
Brc1cccc(CNCCCN2CCOCC2)c1	1%	-6%	-15%	x	-11%	-6%	4%	x
COc1ccc(CCNC(=O)c2cc(=O)c3cc(C)ccc3o2)cc1	-21%	u	u	x	-7%	10%[46.1 µM]	-13%	x
C#CCOCCOCCOCCNc1nc(N2CCN(C(=O)[C@H](Cc3ccc(O)cc3)n3cc(CCO)nn3)CC2)nc(N2CCN(C(=O)[C@H](Cc3ccc(O)cc3)n3cc(CCO)nn3)CC2)n1	8%	x	-1%	-19%	x	22%	-17%	u
COc1cccc(/C=N/NC(=O)CCc2n[nH]c(=O)[nH]c2=O)c1O	u	3%	15%	0.0%	-11%	-2%	13%	-3%
CC(=O)NC(CC(=O)OC(C)C(=O)Nc1ncc(Cl)cc1Cl)c1ccccc1 (stereo unspecified)	-4%	-25%	9%	x	-10%	24%	-5%	x
Cc1nc([N+](=O)[O-])cn1CCCCN1C(=O)c2ccccc2C1=O	1%	3%	x	x	3%	x	-4%	x
O=C(CSc1nnc(CNc2ccc(F)cc2)o1)c1ccccc1	0%	-9%	8%	x	-9%	15%[46.1 µM]	0%	x
CCCc1nc(SCC(=O)NC2CC2)c2c(C)c(C)sc2n1	1%	-11%	2%[46.1 µM]	x	-4%	18%[46.1 µM]	0%	x
CC(C)(C)N(Cc1ccccc1)C(=O)COC(=O)CSc1ccc([N+](=O)[O-])cc1	-1%	-8%	3%	x	20%	6%	x	x
O=S1(=O)N=C(Nc2nc3c(s2)CCCC3)c2ccccc21	-14%	-42%	7.1µM*	-0.7%	-2%	u	14%	14%
Cc1ccc(N2C(=N)SCC2=O)cc1Cl	-13%	-26%	-8%	1.0%	-8%	4%	-9%	4%
COCCCN1C(=O)C(=O)/C(=C(/O)c2ccc(OC)cc2)C1c1ccc(O)c(OC)c1 (stereo unspecified)	-2%	-21%	-1%	-2.5%	-1%	17%&17%	7%	-6%
COc1ccc(/C=N/NC(=O)c2ccc(Br)cc2)cc1CN1CCOCC1	0%	-4%	0%	x	-29%	1%[46.1 µM]	-2%	x
O=C(O)CCC(=O)NNC(=O)c1cccc(Cl)c1	-2%	4%	1%	0.6%	14%	-1%	23%	0%
Oc1ccc(Cl)cc1-c1cc(-c2cccc(Br)c2)n[nH]1	-22%	6%	u	-3.5%	-14%	u	-10%	13µM*
COc1ccccc1Nc1c2c(nc3ccc(NC(=O)c4cccc(F)c4)cc13)CCCC2	x	32µM*	u	7.3%	x	u	x	9%
O=C(c1cc(-c2ccc(Cl)cc2)on1)N1CCN(c2ccc(F)cc2)CC1	-1%	-19%	u	x	-10%	8%[46.1 µM]	0%	x
CC(=O)NC12CC3CC(C1)CC(C(=O)Nc1nccs1)(C3)C2	2%	-16%	-3%	6.7%	-1%	27%	-2%	25%
CCOc1ccc(NC(=O)c2ccccc2NC(=O)CN(C)CC(=O)Nc2ccc(C)cc2)cc1	1%	u	-19%	-5.7%	13%	-26%	7%	27%
